Screening data as filed in PubChem.
Ba CapD inh: Bacillus anthracis CapD inhibitors, primary screen, biochemical, fluorescence intensity; CapD gamma-glutamyltranspeptidase (Bacillus anthracis Ames Ancestor); z-score (concentration not given with the values); hit rate 0.23% among 140,000; AID 492967, 2010; purified CapD enzyme, fluorescence intensity read-out; hits give low values; some hits fall short of the stated cut;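 active = z-score under -4 in either of two replicates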;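 note: stock transfer was 100 nL into about 40 µL; score is relative to mean and spread of the plate; one replicate is shown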
AID504770: growth inhibition of E. coli YBA685, primary screen, V. cholerae RctB inhibitors. E. coli YBA685 rctB-dependent plasmid, OD600 growth, 3 h; hits give low values. z-score (concentration not given with the values). hit rate 0.27% among 130,000;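 active = z-score under -2 on both plates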;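 note: wells of about 30 µL received 100 nL stock; score is relative to mean and SD of the test wells; the first replicate is given; strong numbers were not always called active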
The depositor's hits bear a star; x = not tested or not shown.

SMILES	Ba CapD inh	AID504770
CCCNC(=O)c1ccc(OC)c(OC(=O)c2ccccc2)c1	-0.2	1.9
COc1ccc(Cl)cc1NC(=O)CSc1nc2nccnc2c(=O)n1CC1CCCO1 (stereo not given)	0.1	-0.1
CCOC(=O)N1CCN(C(=O)CCN2C(=O)/C(=C/c3ccc4c(c3)OCO4)SC2=S)CC1	-0.72	x
COc1ccc(-n2ncc3c(N4CCN(c5cccc(Cl)c5)CC4)ncnc32)cc1	-0.06	x
COc1cccc(NC(=O)COC(C)=O)c1	-0.025	-0.15
O=C(NC1CCCCCC1)c1n[nH]c(=O)c2ccccc12	0.21	2
O=c1ccc(S(=O)(=O)N2CCCC2)c[nH]1	x	-0.2
CCCn1c(NC(=O)C2CCCC2)nc2ccccc21	x	-0.45
CC(=O)Nc1ccc(-c2cc(C(=O)O)c3ccccc3n2)cc1	34	x
COCc1cc(=O)[nH]c(/N=C(\N)Nc2ccc(C)cc2C)n1	0.47	-0.8
O=C(NCCN1CCOCC1)c1sc2cc(Cl)ccc2c1Cl	0.79	0.3
CCOC(=O)C1C(=O)NC(SCc2ccccc2)=C(C#N)C1c1ccccc1[N+](=O)[O-] (stereo not given)	0.34	x

Among those listed so far, these have a halogen.
SMILES	Ba CapD inh	AID504770
COc1ccc(Cl)cc1NC(=O)CSc1nc2nccnc2c(=O)n1CC1CCCO1 (stereo not given)	0.1	-0.1
COc1ccc(-n2ncc3c(N4CCN(c5cccc(Cl)c5)CC4)ncnc32)cc1	-0.06	x
O=C(NCCN1CCOCC1)c1sc2cc(Cl)ccc2c1Cl	0.79	0.3

The main list resumes, starting six compounds before the break.
SMILES	Ba CapD inh	AID504770
O=c1ccc(S(=O)(=O)N2CCCC2)c[nH]1	x	-0.2
CCCn1c(NC(=O)C2CCCC2)nc2ccccc21	x	-0.45
CC(=O)Nc1ccc(-c2cc(C(=O)O)c3ccccc3n2)cc1	34	x
COCc1cc(=O)[nH]c(/N=C(\N)Nc2ccc(C)cc2C)n1	0.47	-0.8
O=C(NCCN1CCOCC1)c1sc2cc(Cl)ccc2c1Cl	0.79	0.3
CCOC(=O)C1C(=O)NC(SCc2ccccc2)=C(C#N)C1c1ccccc1[N+](=O)[O-] (stereo not given)	0.34	x
Nc1ncn(C(=O)c2ccccc2)n1	-0.21	0.8
CC(OC(=O)c1ccc(S(=O)(=O)C(F)F)cc1)C(=O)N1CCOCC1 (stereo not given)	x	-0.15
CCCS(=O)(=O)c1c(S(=O)(=O)CCC)c2ccccn2c1C(=O)N/N=C/c1c[nH]c2ccccc12	-0.21	x
CCOc1ccc(C2C(C#N)=C(N)N(c3ccc(OC)cc3)C3=C2C(=O)CC(C)(C)C3)cc1 (stereo not given)	0.075	x
NNCc1ccccc1	x	1.5
COC(CNC(=O)c1cccc(-n2c(=S)[nH]c3cc(Cl)ccc3c2=O)c1)OC	1.4	0.2
Cc1ccc(C)c(C2C3CCCC=C3C(C#N)=C(N)C2(C#N)C#N)c1 (stereo not given)	3.1	-0.2
Cc1cc(=O)oc2c1ccc1occ(NO)c12	8.8	-0.95
CCOC(=O)c1c(C)n(C)c2cc(CN(C)C)c(O)c(S(=O)(=O)c3ccccc3)c12	0.52	x
O=C1CC(c2ccco2)Sc2ccccc2N1 (stereo not given)	-0.035	-0.8
CC1CCc2c(sc(NC(=O)CN3CCN(S(=O)(=O)c4cccs4)CC3)c2C(=O)OC(C)C)C1 (stereo not given)	x	2
CC(C)NC(CC(=O)Nc1ccccc1Cl)C(=O)O (stereo not given)	-0.12	-1.1
COc1ccc(S(=O)(=O)Nc2cc(C(=O)NC3CCCCCCC3)ccc2N2CCOCC2)cc1	-0.18	-0.65
CCCn1c(=O)c2ccccc2n2c(SCCCc3ccccc3)nnc12	x	-0.7
COc1ccc(NC(=O)c2ccc(CNC(=O)OCC(F)(F)F)cc2)cc1	-0.46	x
COc1ccc(-n2nc3ccc(NS(C)(=O)=O)cc3n2)cc1Cl	x	-0.6
CCOC(=O)c1c(C)c(C(=O)N2CCCCCC2)c(C)n1CC	50	-0.6
CCC1CCCCN1C(=O)COC(=O)/C=C/c1ccccc1Cl (stereo not given)	x	0.1
Cc1cc(=O)oc2cc(OC(C)C(=O)NN)ccc12 (stereo not given)	x	-0.4
Cn1cc(CC(=O)NCCN2CCN(c3cccc(Cl)c3)CC2)c2ccccc21	0.98	-0.65
Cc1ccc(CSCc2ccc(C(=O)NCc3ccco3)o2)cc1	-0.54	-0.7
NC(=O)c1c(NC(=O)Nc2ccccc2)sc2c1CCCC2	0.24	-0.25
O=C(c1cccnc1)N1CCN(C(c2ccccc2)c2ccccc2)CC1	0.65	0.3
O=C(O)C1CCCN(CCc2ccccn2)C1 (stereo not given)	x	-0.55
CCOc1ccc(NC(=O)CCS(=O)(=O)c2ccc3c(c2)OCC(=O)N3)cc1	-0.34	-0.4
COc1ccc(CNC(=O)CN2C3CCCC2CC(=O)NC3)cc1 (stereo not given)	x	-0.55
CSc1sc(C(=O)NNC(=O)C(C)c2ccc(Cl)cc2)c2c1C1(CCC2)SCCS1 (stereo not given)	-0.88	x
CCN(Cc1nc(-c2cccc(C)c2)no1)C(=O)c1c(OC)cccc1OC	x	2.2
COc1ccc(N(CC(=O)N2CCc3ccccc32)S(=O)(=O)c2c(C)[nH]c(=O)[nH]c2=O)cc1	0.75	-0.4
COc1cccc(OCC(=O)N2CCCc3ccccc32)c1	-0.64	0.9
COc1cc(OC)cc(N2CCN(C(=O)CCC(=O)O)CC2)c1	-0.33	x
c1ccn2cc(-c3ccc4c(c3)OCO4)cc2c1	42	0.5
COc1ccccc1C1CC(c2ccc(Br)cc2)=NN1S(=O)(=O)c1ccc(C)cc1 (stereo not given)	0.23	x
O=C(Nc1ncccn1)c1c[nH]c2ccccc2c1=O	0.01	-0.1
CCCNC(=O)c1ccc2c(c1)ncn2-c1ccc(OCc2ccccc2)cc1	-1.4	-0.15
Cc1nc2ccccc2n(C)c1=O	x	0.05
CC(C)(C)C1=CC(=O)C(N2CCOCC2)=CC1=O	x	-0.5
CCc1nc2ccccc2c2c1C(=O)N(NC(=O)c1sc(-n3cccc3)nc1C)C2=O	18	x
C=CCN1C(=O)/C(=C2\SC(N3CCCCC3)=NC2=O)c2ccccc21	-0.45	0.45
COc1ccc2cc3c(N)nn(C(=O)Cn4c(=O)oc5ccccc54)c3nc2c1	1.7	1.1
O=S(=O)(c1ccccc1)c1cc(O)ccc1O	-0.92	0.15
O=C(Cn1ccn(-c2ccc(F)cc2)c(=O)c1=O)c1ccc(F)cc1	-0.21	-0.3
CCOc1ccc(-c2c(C#N)c(N)nc(OC)c2C#N)cc1	3.4	x
Cc1sc2ncnc(SCC(=O)N3CCCC3=O)c2c1C	x	-0.4
O=C1CCCC2=C1C(c1ccc(F)cc1)C1C(=O)c3ccccc3C1=N2 (stereo not given)	-0.26	0.35
CCSc1nc(-c2ccc(C)cc2)cc(C(F)(F)F)c1C#N	0.81	-0.3
Cc1nc2n(CC(=O)c3ccccc3)c3ccccc3n2n1	-0.38	-0.25
COc1cc(OC)cc(-c2nc3ccccc3c(=O)n2OC(=O)c2cc(OC)ccc2Br)c1	-0.42	x
COc1cc(C2N=C(c3ccc(Cl)cc3)SC(c3ccc(Cl)cc3)=N2)cc(OC)c1OC	0.96	x
CC1(C)CC(=O)C2=C(C1)OC1=C(C(=O)CC(C)(C)C1)C2c1ccccc1Cl	-0.14	0.85
CC1=NN(C(C)(C)C)C(=O)C1	0.28	-0.05
CCN(CC)CCNc1ccnc2cc3ccccc3cc12	4	-0.35
CCc1ccc(NC(=O)Cn2cccc2)cc1	0.23	-0.4
Cc1ccc(C)n1-c1ncccc1OCc1nnc(-c2ccc3ccccc3c2)o1	0.56	0.55
Cc1nnc(SCC(=O)Nc2sccc2C#N)s1	-0.045	-0.65
O=C1/C(=C/c2cn(-c3ccccc3)nc2-c2ccc(Cl)cc2)SC(=S)N1C1CCS(=O)(=O)C1 (stereo not given)	-0.13	x
COC(=O)c1ccccc1-c1cc(C)no1	-0.12	-0.6
Cc1occc1C(=O)Nc1ccc2ccccc2c1	x	0.75
COc1ccc2c(c1)c(=O)c1ccccc1n2CC(=O)Nc1ccc(C)c(Cl)c1	0.77	x
CCOc1ccc(OCC)c(NC(=O)c2ccc3c(c2)N(Cc2ccccc2)C(=O)CS3=O)c1 (stereo not given)	-0.17	-0.05

(continued)
SMILES	Ba CapD inh	AID504770
CC1CC(C)CN(CCCNS(=O)(=O)c2cccc3cccnc23)C1 (stereo not given)	-0.96	0.35
CC(=O)Nc1ccc(C(=O)Nc2ccc(C)cc2)cc1	x	1.3
O=S(=O)(c1cccc(F)c1)N1CCc2sccc2C1c1ccc(OC(F)(F)F)cc1 (stereo not given)	-0.005	0.05
COC(=O)Cn1cnc2sc3c(c2c1=O)CCCC3	x	-0.6
c1ccc(N2CCN(c3c4c(nc5nncn35)CCC4)CC2)cc1	2.5	-0.1
COc1cc(/C=C2\N=C(c3cc(OC)c(OC)c(OC)c3)OC2=O)cc(Br)c1OC(C)=O	0.18	x
CCOC(=O)C1=C(O)/C(=C/c2cccc(O)c2)SC1=Nc1ccccc1	-0.29	x
COc1ccccc1N1CCN(C(=O)C(Cc2ccccc2)N2Cc3ccccc3C2=O)CC1 (stereo not given)	-0.19	0.15
CCOC(=O)C1=C(C)N=c2s/c(=C\c3cc([N+](=O)[O-])ccc3N3CCOCC3)c(=O)n2C1c1ccc(OC)cc1 (stereo not given)	0.035	x
O=C(NNc1ccccn1)C(c1ccccc1)c1ccccc1	x	-0.65
CC1CN(C(=O)CCC(=O)NC2CCCC2)c2ccccc2O1 (stereo not given)	-0.43	-0.25
COC(=O)c1ccc(CSc2nnc(-c3ccco3)n2C)o1	x	-0.3
O=C(Nc1cc(Cl)c(Cl)cc1Cl)C(Cl)(Cl)Cl	-0.74	x
CC1(C)CCC[C@]2(C)C3CC(=O)OC3CCC12 (stereo not given in full)	0.74	-0.95
CS(=O)(=O)Nc1ccc(Oc2c(C#N)cccc2C#N)cc1	-0.88	-0.5
CCC(C)(C)c1ccc(S(=O)(=O)N2CCN(c3cc(C(F)(F)F)nc4ccc(C)cc34)CC2)cc1	4.2	x
CC(C)=N/N=C1/N=C(c2ccc(Cl)cc2)CS1	-0.2	x
CCCC(=O)N(Cc1ccccc1)Cc1nc2ccccc2c(=O)[nH]1	x	-1
Cc1ccc2c(Cl)cc(Cl)c(OCC(=O)Nc3c(F)cccc3F)c2n1	-0.82	1.6
CCc1ccc(NC(=O)C2CCN(C(=O)N3CCOc4ccccc43)CC2)cc1	-0.21	-0.15
Cc1cccc(OCc2nnc(SCC(=O)NC34CC5CC(CC(C5)C3)C4)o2)c1	x	-1.1
CCN(CC)C(=O)Nc1ccc(I)cc1	x	-0.45
CCOc1cc(/C=C2\Sc3ccccc3C2=O)cc(Br)c1OCC(=O)O	-0.61	x
O=C(O)C1CSC(c2ccccc2O)=N1 (stereo not given)	x	2.5

Structural class, the compounds so far with an aryl thioether with sulfur outside any ring.
SMILES	Ba CapD inh	AID504770
COc1ccc(Cl)cc1NC(=O)CSc1nc2nccnc2c(=O)n1CC1CCCO1 (stereo not given)	0.1	-0.1
CCCn1c(=O)c2ccccc2n2c(SCCCc3ccccc3)nnc12	x	-0.7
CSc1sc(C(=O)NNC(=O)C(C)c2ccc(Cl)cc2)c2c1C1(CCC2)SCCS1 (stereo not given)	-0.88	x
Cc1sc2ncnc(SCC(=O)N3CCCC3=O)c2c1C	x	-0.4
CCSc1nc(-c2ccc(C)cc2)cc(C(F)(F)F)c1C#N	0.81	-0.3
Cc1nnc(SCC(=O)Nc2sccc2C#N)s1	-0.045	-0.65
COC(=O)c1ccc(CSc2nnc(-c3ccco3)n2C)o1	x	-0.3
Cc1cccc(OCc2nnc(SCC(=O)NC34CC5CC(CC(C5)C3)C4)o2)c1	x	-1.1

Additional compounds.
SMILES	Ba CapD inh	AID504770
Cc1ccccc1N1C(=O)NC(=O)/C(=C\C=C\c2ccco2)C1=O	-0.55	-0.75
COc1ccc(N2CCN(c3ncnc4sc(C(=O)NCC5CCCO5)c(C)c34)CC2)cc1 (stereo not given)	-0.29	x
Cc1ccc(NC(=O)CN(Cc2ccco2)Cc2ccccc2O)cc1C	x	-0.25
COCCNC(=S)N1CCn2c1nc1ccccc12	x	0.1
Cc1ccc(-c2nnnn2-c2ccccc2C(F)(F)F)cc1	0.26	0.2
CCCc1ccc(/C(=N/O)C(=O)O)s1	0.13	-0.5
N/C(=N\OC(=O)c1cccs1)c1ccc([N+](=O)[O-])cc1	-0.29	x
CCC1CCCCN1C(=O)Cn1c(=O)n(CCC(=O)NCc2ccco2)c(=O)c2sccc21 (stereo not given)	-0.25	0.1
N#CC(c1ccc(F)cc1)N1CCOCC1 (stereo not given)	x	-1.1
c1ccc2c(c1)N1CC3(CCCCC3)CNC1C21OCCO1 (stereo not given)	0.98	x
Cc1sc2ncn(C(C)C(=O)O)c(=O)c2c1C (stereo not given)	-0.42	-0.95
CCN1CCN(S(=O)(=O)c2cc(OCC(=O)NC3CCCCC3)c(C)cc2Cl)CC1	-0.3	0.1
O=C1c2sc3nnc(-c4ccccc4)c(=O)n3c2C(=O)N1c1ccccc1	-0.12	x
N#Cc1c(N)nc2sc(C(=O)Nc3ccc(Br)cc3)c(N)c2c1-c1ccccc1	-0.85	x
Clc1ccc(-n2ncc3c(NCc4cccc(Cl)c4)ncnc32)cc1	-0.43	x
CC(=O)c1sc2nc(-c3cccs3)cc(C(F)(F)F)c2c1N	28	x
CCCC(/N=C/c1cc(Cl)ccc1O)/N=C/c1cc(Cl)ccc1O	2.6	-0.8
COc1ccc([N+](=O)[O-])cc1C1N(c2ccccc2)CCN1c1ccccc1	0.39	x
O=C(Nc1ccccc1)Oc1ccccc1N1CCCCC1	-0.89	-1.3
COC(=O)c1ccccc1N(C)S(C)(=O)=O	-0.11	0.15
O=C1NC(=O)/C(=C\c2ccccc2Oc2ccc(Cl)cc2Cl)S1	0.15	x
Cc1c(Cl)cccc1NC(=O)CSC1=C(C#N)C(c2ccc(F)cc2)CC(=O)N1 (stereo not given)	0.11	x
